VACV mCherry inh: vaccinia inhibition (mCherry reporter); Vaccinia virus mCherry reporter infection, fluorescence; about a quarter of the inactives have no number; Potency, µM (top dose mostly 36.5 µM), for inactives: top-dose activity change, negative = inhibition, most hits filed as inhibitors; 0.63% of 310,000 active; active = well fitted inhibition curve with a large enough effect; inconclusive = small, poorly fitted or top-dose-only effect; inactive = no such curve, though single readings can be large or run the other way; tested in A549 cells; also: nearly all actives have a fitted effect of over 35% in size; inactives centre near -10
VACV Venus inh: inhibitors of vaccinia virus (Venus reporter); Vaccinia virus Venus reporter expression, fluorescence; Potency, µM (titrated, usually from 36.5 µM), without a hit: at the top dose activity change, negative = inhibition, actives largely listed as inhibitors; 0.46% of 330,000 active; active means well fitted inhibition curve with a large enough effect; inconclusive means small, poorly fitted or top-dose-only effect; inactive means no such curve, though single readings can be large or run the other way; tested in A549 cells; also: nearly all actives have a fitted effect of over 30% in size; inactives centre near -10
* hit, by the source's call; i = inactive; ? = inconclusive; . = not tested or not shown; & = joins results of further samples; [ ] = dose if it differs, or a comment. % is scaled to controls: 0 for no effect and ±100 for the full control effect; potency is read from the fitted curve at half-maximal effect. Some of the compounds tested; rates above refer to the full screens.

> C=C1c2cccc(O)c2C(O)=C2C(=O)[C@]3(O)C(O)=C(C(N)=O)C(=O)C(N(C)C)C3C(O)C12 (some centres not stated)
  VACV mCherry inh: -10%
  VACV Venus inh: -4%
> CC12CCC(=O)C=C1CCC1C2CCC2(C)C1CCC2(O)C(=O)CO (configuration not stated)
  VACV mCherry inh: i
  VACV Venus inh: -8%
> O=C(CSc1nc2ccccc2n1Cc1cccc(Cl)c1)N1CCN(c2ccc(F)cc2)CC1
  VACV mCherry inh: -24%
  VACV Venus inh: -15%
> NOCC(=O)O
  VACV mCherry inh: -8%
  VACV Venus inh: -12%
> CCCCNc1ccc(C(=O)OCCOCCOCCOCCOCCOCCOCCOCCOCCOC)cc1
  VACV mCherry inh: i
  VACV Venus inh: -11%
> CCCCN(CCCC)CC(O)c1cc(Cl)cc2c1-c1ccc(Cl)cc1C2=Cc1ccc(Cl)cc1 (configuration not stated)
  VACV mCherry inh: -13%
  VACV Venus inh: -3%
> CCCCC(=O)O[C@@]1(C(=O)CO)C(C)CC2C3CCC4=CC(=O)C=C[C@@]4(C)[C@]3(F)C(O)C[C@]21C (some centres not stated)
  VACV mCherry inh: -22%
  VACV Venus inh: -18%
> CCCCn1cnc2cc(NCc3ccccc3Cl)ccc21
  VACV mCherry inh: -14%
  VACV Venus inh: -11%
> CCOC(N)=O
  VACV mCherry inh: -11%
  VACV Venus inh: -5%
> CC(=O)Nc1ccc(CC(=O)O)cc1
  VACV mCherry inh: -2%
  VACV Venus inh: -2%

Some of the entries so far, with values under each structure:
Results follow in this order: VACV mCherry inh	VACV Venus inh
CC12CCC(=O)C=C1CCC1C2CCC2(C)C1CCC2(O)C(=O)CO (configuration not stated)
    i	-8%
O=C(CSc1nc2ccccc2n1Cc1cccc(Cl)c1)N1CCN(c2ccc(F)cc2)CC1
    -24%	-15%
NOCC(=O)O
    -8%	-12%
CCCCNc1ccc(C(=O)OCCOCCOCCOCCOCCOCCOCCOCCOCCOC)cc1
    i	-11%
CCCCN(CCCC)CC(O)c1cc(Cl)cc2c1-c1ccc(Cl)cc1C2=Cc1ccc(Cl)cc1 (configuration not stated)
    -13%	-3%

Following part:
> COc1ccc(-c2cn3cccnc3n2)cc1NC(=O)c1cc(C)cc(C)c1
  VACV mCherry inh: -9%
  VACV Venus inh: -5%
> COc1ccc(Cn2c(SCc3ccc(C(=O)NC4CCCC4)cc3)nc3ccncc32)cc1
  VACV mCherry inh: -15%
  VACV Venus inh: -14%
> CN(C)CCCC1(c2ccc(F)cc2)OCc2cc(C#N)ccc21 (configuration not stated)
  VACV mCherry inh: i
  VACV Venus inh: -18%
> Cc1ccc(N(CC2=NCCN2)c2cccc(O)c2)cc1
  VACV mCherry inh: -1%
  VACV Venus inh: -14%
> CNCCCN1c2ccccc2CCc2ccccc21
  VACV mCherry inh: -10%&-12%
  VACV Venus inh: -23%&-19%
> C[N+]1(C)CCC(=C(c2ccccc2)c2ccccc2)CC1
  VACV mCherry inh: i
  VACV Venus inh: -5%
> CC(O)CNC(=O)C(=O)Nc1c2c(nn1-c1ccc(Cl)cc1)CSC2 (configuration not stated)
  VACV mCherry inh: -9%
  VACV Venus inh: -9%
> C1COC(NC(C2CC2)C2CC2)=N1
  VACV mCherry inh: -11%
  VACV Venus inh: -8%
> Oc1ccc(C2CNCCc3c2cc(O)c(O)c3Cl)cc1 (configuration not stated)
  VACV mCherry inh: -3%
  VACV Venus inh: -12%&-13%
> COc1ccc(CC(=O)Nc2c(C(=O)N3CCN(c4ccccc4F)CC3)oc3ccccc23)cc1OC
  VACV mCherry inh: ?
  VACV Venus inh: -27%

> CNC1C(O)C2OC3OC(C)CC(=O)[C@@]3(O)O[C@H]2[C@H](NC)C1O (some centres not stated)
  VACV mCherry inh: -22%
  VACV Venus inh: -10%
> Oc1ccc2c(c1)OCC1(O)Cc3cc(O)c(O)cc3C21 (configuration not stated)
  VACV mCherry inh: 270%[activator]
  VACV Venus inh: 329%[activator]
> CC1(C)O[C@H]2CC(=O)OC[C@@]23C1CC(=O)[C@]1(C)C3CC[C@@]2(C)[C@H](c3ccoc3)OC(=O)[C@H]3O[C@]321 (some centres not stated)
  VACV mCherry inh: 1%
  VACV Venus inh: 4%
> CCCCCCCCCCCCCCC[C@H](O)[C@@H](N)CO
  VACV mCherry inh: -17%[3.33 µM]
  VACV Venus inh: -8%[3.33 µM]
> CCc1ccc(CCOc2ccc(CC3SC(=O)NC3=O)cc2)nc1 (configuration not stated)
  VACV mCherry inh: -10%&-5%
  VACV Venus inh: -7%&-6%&-9%
> O=C(CCCCCn1c(=O)c2sccc2n(CC(=O)Nc2cccc(Cl)c2)c1=O)NCc1ccc2c(c1)OCO2
  VACV mCherry inh: -4%
  VACV Venus inh: -21%
> Cc1cccc(N2CCN(C(=O)CCC(=O)NNc3nc4ccccc4c4nc(C)nn34)CC2C)c1 (configuration not stated)
  VACV mCherry inh: -12%
  VACV Venus inh: -4%
> COc1ccc(C[C@H]2COC(=O)[C@@H]2Cc2ccc(OC3OC(CO)C(O)C(O)C3O)c(OC)c2)cc1OC (some centres not stated)
  VACV mCherry inh: -21%
  VACV Venus inh: -16%
> O=C(Cn1c(=O)n(Cc2ccco2)c(=O)c2oc3ccccc3c21)Nc1ccccc1
  VACV mCherry inh: 4%
  VACV Venus inh: 0%
> Cc1ccc(=O)n(-c2ccccc2)c1
  VACV mCherry inh: -1%
  VACV Venus inh: -17%

> O=c1oc2c(O)c(O)cc3c(=O)oc4c(O)c(O)cc1c4c23
  VACV mCherry inh: -4%&-21%
  VACV Venus inh: -21%&-6%&-18%
> Oc1cc2c(cc1O)[C@H]1c3ccc(O)c(O)c3OC[C@@]1(O)C2
  VACV mCherry inh: 3%
  VACV Venus inh: 64%[activator]
> Cc1nc2c(-c3ccccc3)c(C)[nH]n2c(=O)c1Cc1ccc(Br)cc1
  VACV mCherry inh: -19%[7.34 µM]
  VACV Venus inh: -8%[7.34 µM]
> NC(N)=O
  VACV mCherry inh: -4%
  VACV Venus inh: -4%&-1%
> COc1cc([C@@H]2Oc3cc(C4Oc5cc(O)cc(O)c5C(=O)[C@H]4O)ccc3O[C@H]2CO)ccc1O (some centres not stated)
  VACV mCherry inh: i
  VACV Venus inh: -10%
> CCn1cc(C(=O)O)c(=O)c2cnc(N3CCNCC3)nc21
  VACV mCherry inh: -6%
  VACV Venus inh: -4%
> CCCCCC(=O)O[C@]1(C(C)=O)CC[C@H]2[C@@H]3CCC4=CC(=O)CC[C@]4(C)[C@H]3CC[C@@]21C
  VACV mCherry inh: ?
  VACV Venus inh: -29%
> COC(=O)C1=CO[C@@H](O[C@@H]2O[C@H](CO)[C@@H](O)[C@H](O)[C@H]2O)C2C1C[C@H](O)[C@@H]2C (some centres not stated)
  VACV mCherry inh: i
  VACV Venus inh: -5%
> CCC1C(=O)OC[C@H]1Cc1cncn1C (some centres not stated)
  VACV mCherry inh: -15%
  VACV Venus inh: ?
> NC1CCN(c2nc3c(cc2F)c(=O)c(C(=O)O)cn3-c2ccc(F)cc2F)C1 (configuration not stated)
  VACV mCherry inh: -5%
  VACV Venus inh: -11%&-17%

An excerpt from above in order of formula weight, falling.
> CCCCCC(=O)O[C@]1(C(C)=O)CC[C@H]2[C@@H]3CCC4=CC(=O)CC[C@]4(C)[C@H]3CC[C@@]21C
  VACV mCherry inh: ?
  VACV Venus inh: -29%
> COC(=O)C1=CO[C@@H](O[C@@H]2O[C@H](CO)[C@@H](O)[C@H](O)[C@H]2O)C2C1C[C@H](O)[C@@H]2C (some centres not stated)
  VACV mCherry inh: i
  VACV Venus inh: -5%
> CCC1C(=O)OC[C@H]1Cc1cncn1C (some centres not stated)
  VACV mCherry inh: -15%
  VACV Venus inh: ?

More entries follow:
> O=C(O)c1cccnc1Nc1cccc(C(F)(F)F)c1
  VACV mCherry inh: -2%
  VACV Venus inh: ?
> CC1CC2C3CCC4=CC(=O)C=C[C@]4(C)[C@@]3(Cl)C(O)C[C@]2(C)C1(OC(=O)c1ccco1)C(=O)CCl (some centres not stated)
  VACV mCherry inh: i
  VACV Venus inh: 0%
> CC(=O)CCCCn1c(=O)c2c(ncn2C)n(C)c1=O
  VACV mCherry inh: -17%
  VACV Venus inh: -1%&-13%
> CCCCNc1ccc(C(=O)OCCN(C)C)cc1
  VACV mCherry inh: 0%&-12%
  VACV Venus inh: -8%&-6%
> O=C(O)CCC(=O)c1ccc(-c2ccccc2)cc1
  VACV mCherry inh: -13%
  VACV Venus inh: -14%&-4%
> CN(C)CCC[C@]1(c2ccc(F)cc2)OCc2cc(C#N)ccc21
  VACV mCherry inh: i
  VACV Venus inh: -10%
> COc1ccc(-c2cc(=O)c3c(O)cc(O[C@@H]4O[C@H](CO[C@@H]5O[C@@H](C)[C@H](O)[C@@H](O)[C@H]5O)[C@@H](O)[C@H](O)[C@H]4O)cc3o2)cc1O
  VACV mCherry inh: -15%&-14%
  VACV Venus inh: -5%&-1%
> C/C=C/C(=O)N(CC)c1ccccc1C
  VACV mCherry inh: -3%
  VACV Venus inh: -8%&4%
> CCOC(=O)[C@H](CCc1ccccc1)N[C@@H](C)C(=O)N1Cc2ccccc2C[C@H]1C(=O)O
  VACV mCherry inh: i
  VACV Venus inh: -1%&-15%
> COc1ccccc1N1CCN(CCCN=C2CC(=O)N(C)C(=O)N2C)CC1
  VACV mCherry inh: -20%
  VACV Venus inh: -11%

New compounds follow:
SMILES	VACV mCherry inh	VACV Venus inh
COc1c(O)cc2c(c1O)C1OC(CO)C(O)[C@H](O)[C@H]1OC2=O (some centres not stated)	-14%	-17%
CCN(CC)CCOC(=O)c1ccc(N)cc1	-9%	-21%&-4%
COc1ccc(C2CNC(=O)C2)cc1OC1CCCC1 (configuration not stated)	-4%	-13%
Cc1c(C(=O)O)c(O)cc2c1C(=O)c1c(O)c([C@@H]3O[C@H](CO)[C@@H](O)[C@H](O)[C@H]3O)c(O)c(O)c1C2=O	21%	113%[activator]
COCCn1c(SCC(=O)Nc2ccc(F)c(Cl)c2)nc2c(oc3ccccc32)c1=O	?	-22%
COc1cc(C(c2c(C)[nH][nH]c2=O)c2c(C)[nH][nH]c2=O)ccc1OC(=O)c1cccc(C)c1	-11%	-9%
COc1cc2ncnc(Nc3cccc(Cl)c3)c2cc1OC	?	?
COc1cc(-c2oc3cc(O)cc(O)c3c(=O)c2O[C@@H]2O[C@H](COC3O[C@@H](C)[C@H](O)[C@@H](O)[C@H]3O)[C@@H](O)[C@H](O)[C@H]2O)ccc1O (some centres not stated)	-12%	4%
C/C=C(/C)C(=O)OC(C)(C)[C@@H]1Cc2c(ccc3ccc(=O)oc23)O1	-14%	-15%
COc1ccc(-c2cc(=O)c3c(O)cc(OC4OC(COC5OC(C)C(O)C(O)C5O)C(O)C(O)C4O)cc3o2)cc1O (configuration not stated)	-2%	11%
CN1CCCN=C1COC(=O)C(O)(c1ccccc1)C1CCCCC1 (configuration not stated)	-27%&-9%	-19%&-3%
CC[C@@H]1C(=O)OC[C@@H]1Cc1cncn1C	-15%	-16%&-30%
Cc1cncn1CCc1nc2c3ccccc3nc(SCC(=O)Nc3cccc(Cl)c3)n2n1	-13%&-28%	?
N[C@@H](Cc1c[nH]c2ccc(O)cc12)C(=O)O	-4%&-12%	-15%&-14%
COc1ccc(-n2nc3c(N4CCCC(C(=O)NCc5ccccc5C)C4)nnc(C)c3c2C)cc1 (configuration not stated)	?	?
CC1Cc2ccccc2N1NC(=O)c1ccc(Cl)c(S(N)(=O)=O)c1 (configuration not stated)	-1%&-16%	?
CCC(NC(C)C)C(O)c1ccc(O)c2[nH]c(=O)ccc12 (configuration not stated)	-23%	-10%
Cc1cccc2c1NC(=O)C2(c1ccc(O)cc1)c1ccc(O)cc1	.	-25%
CC(C)=CCOc1c2ccoc2cc2oc(=O)ccc12	3%	-3%

Single values from the entries so far.
In VACV mCherry inh, `CCC(NC(C)C)C(O)c1ccc(O)c2[nH]c(=O)ccc12` (configuration not stated) reads -23%
In VACV mCherry inh, `CC[C@@H]1C(=O)OC[C@@H]1Cc1cncn1C` reads -15%
In VACV mCherry inh, `N[C@@H](Cc1c[nH]c2ccc(O)cc12)C(=O)O` reads -4%&-12%

High-throughput results deposited in PubChem BioAssay by National Center for Advancing Translational Sciences (NCATS).
